High-throughput results from PubChem.
HNF4A DNA FP: change in binding of human HNF4 alpha to DNA | P41235 | HNF4a-FITC DNA binding, fluorescence polarization, 1 h | activity change, % at 10 µM | 360,000 compounds, 0.3% hits; in the data active means activity change above about 30%, passing the limit was not always enough;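 further: controls were the assay level and a saturating level of protein; the project sought stronger binding though the title names inhibitors; some compounds called inactive have numbers as strong as hits; positive values seem to mean higher polarization but the record does not say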
RanGTP-Impb inh: inhibitors of RanGTP-importin-beta interaction, primary screen, biochemical, FRET, CFP-Ran, YFP-importin-beta, homogeneous; cell-free CFP-Ran/YFP-importin-beta FRET ratio; inhibition, % (test concentration not listed); 300,000 compounds, 1.1% hits; AID 2216;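 active means most replicates above 15%; inconclusive means exactly half above 15%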;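 further: 0% = DMSO wells and 100% = Ran loaded with GDP instead of GTP; wells of about 40 µL received 100 nL stock; the first replicate is given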
Vif TR-FRET: HIV-1 Vif–A3G interaction blockers – biochemical, TR-FRET, GST-Vif 1-94, biotin-A3G peptide, dose response retest, primary screen (AID 1117319) | TR-FRET GST-Vif / biotin-A3G peptide binding; higher % means a stronger effect; test concentration not given here; strong numbers were not always called active | one-dose inhibition, %; IC50 in µM for titrated hits | 260,000 compounds, 0.57% hits;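 active means above the screen mean plus three standard deviations and confirmed in dose response; inconclusive means results disagree or hit not tested in dose response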;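 further: Vif residues 1-94 fused to GST binding biotinylated APOBEC3G peptide 110-148; 0% = full assay without inhibitor and 100% = GST in place of GST-Vif; retest series ran down from 100 µM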
ALR inh: blocks human ALR sulfhydryl oxidase activity | purified ALR, DTT oxidation, H2O2 HRP-luminol luminescence | 290,000 compounds, 3.8% hits | AID 485317 | inhibition, % (test concentration not listed);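 active means mean and each replicate at 75% or more; inconclusive means only one of the two met; inactive means neither met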;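 further: stock transfer was 7.5 nL into about 7.5 µL; 0% = neutral wells and 100% = wells with inactivated enzyme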
Beta2AR agonist: agonists of human beta-2 adrenergic receptor inducing internalization. Am2.2-beta2AR cells, FAP receptor internalization, flow cytometry; reference of the scale not given here. response, % (no concentration beside the values). 340,000 compounds, 0.43% hits;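 active means response above a set limit, near 3 SD of response in nonfluorescent compounds, cut at about 42% in these data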;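 further: stock transfer was 100 nL into about 11 µL; a reference agonist was the positive control; negative values mostly stem from fluorescent compounds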
Calb FLC: C. albicans growth modulation with fluconazole | C. albicans CaCi-2 (fluconazole-resistant clinical isolate) + fluconazole, Alamar Blue growth, 48 h | growth inhibition, % (test concentration not listed) | 300,000 compounds, 0.57% hits;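 active means most replicates above 75%; inconclusive means exactly half above 75%; inactive means most below 75%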;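 further: all wells also contain fluconazole at 8 µg/ml as a sub-toxic cotreatment; 0% = median of DMSO wells and 100% = median of geldanamycin control wells; wells of about 8 µL received 7.5 nL stock; the first replicate is given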
LANA-H2B inh: blocks KSHV LANA binding to histone H2A/H2B; Q9QR71; cell-free LANA-H2A/H2B peptide, fluorescence polarization; inhibition, % (no concentration beside the values); AID 2629; 320,000 compounds, 0.6% hits; in the data active means inhibition mostly above about 10%, no sharp cut-off; inactive means mostly below about 6.7%;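 further: stock transfer was 7.5 nL into about 10 µL; 0% = median of vehicle wells and 100% = median of positive control wells; one replicate is shown; the record names a cut of 25% in any replicate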
Target sequence (Q9QR71 whole entry, looked up): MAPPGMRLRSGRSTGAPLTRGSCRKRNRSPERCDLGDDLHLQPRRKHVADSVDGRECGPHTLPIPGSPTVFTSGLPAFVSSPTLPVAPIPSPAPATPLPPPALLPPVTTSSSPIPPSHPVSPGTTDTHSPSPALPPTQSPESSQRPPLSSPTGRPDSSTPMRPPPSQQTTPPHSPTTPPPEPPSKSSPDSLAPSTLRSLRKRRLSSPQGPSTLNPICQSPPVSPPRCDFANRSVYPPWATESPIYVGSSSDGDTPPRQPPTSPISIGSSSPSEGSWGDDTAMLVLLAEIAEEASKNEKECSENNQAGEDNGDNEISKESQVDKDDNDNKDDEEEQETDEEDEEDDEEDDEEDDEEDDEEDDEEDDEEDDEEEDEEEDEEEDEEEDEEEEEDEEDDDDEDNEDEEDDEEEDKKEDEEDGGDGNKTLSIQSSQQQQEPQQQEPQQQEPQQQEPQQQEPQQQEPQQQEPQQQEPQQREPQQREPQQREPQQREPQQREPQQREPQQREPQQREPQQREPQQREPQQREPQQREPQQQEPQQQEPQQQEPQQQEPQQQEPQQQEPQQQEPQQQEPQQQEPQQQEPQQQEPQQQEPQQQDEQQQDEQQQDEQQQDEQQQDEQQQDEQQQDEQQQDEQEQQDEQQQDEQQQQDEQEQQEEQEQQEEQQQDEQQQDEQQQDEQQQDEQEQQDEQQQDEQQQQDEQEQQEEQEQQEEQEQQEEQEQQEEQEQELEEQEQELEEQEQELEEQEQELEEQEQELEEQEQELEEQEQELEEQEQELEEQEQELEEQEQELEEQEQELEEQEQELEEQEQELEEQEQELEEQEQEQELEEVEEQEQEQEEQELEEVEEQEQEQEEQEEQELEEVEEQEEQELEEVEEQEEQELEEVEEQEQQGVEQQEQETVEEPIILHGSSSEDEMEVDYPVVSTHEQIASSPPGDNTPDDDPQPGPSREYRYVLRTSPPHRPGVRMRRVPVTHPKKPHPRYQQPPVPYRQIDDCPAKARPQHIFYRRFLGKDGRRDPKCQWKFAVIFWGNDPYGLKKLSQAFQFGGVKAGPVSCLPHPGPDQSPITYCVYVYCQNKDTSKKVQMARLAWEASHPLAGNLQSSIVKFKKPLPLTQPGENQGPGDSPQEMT
* marks the source's active call; other numbers are inactive results; ? = inconclusive; . = no result given.

Every second line gives: HNF4A DNA FP, RanGTP-Impb inh, Vif TR-FRET, ALR inh, Beta2AR agonist, Calb FLC, LANA-H2B inh
1	CN(CC(=O)Nc1cccc(F)c1)CC(=O)Nc1cccc(S(=O)(=O)N2CCCCC2)c1
  3.0, ., -7%, -1, 11, ., -1.0
2	Cc1c(C(=O)N(Cc2cccc(Br)c2)C2CCS(=O)(=O)C2)oc2ccc(F)cc12 (centres undefined)
  4.1, 3.5, ., -3, 39, -1, 5.2
3	O=C(/C=C/c1ccc2c(c1)OCO2)N1CCCCC1
  5.5, 3.8, ., 25, 1, -44, 2.2
4	[O-]C1=N/[N+](=C/c2ccccc2Cl)CC1
  -3.4, 7.1, 3%, 15, 13, -2, -0.3
5	N#Cc1cc(NC(=O)c2ccc(F)cc2)c(=O)n2c1[nH]c1ccccc12
  ., 26*, -3%, 20, ., ?, -3.1
6	COc1cc(C(C)=O)ccc1OCC(=O)Nc1cc(Cl)ccc1-n1cncn1
  -0.7, ., -17%, ., 4, ., .
7	Cc1ccc(NC(=O)C(NC2CCCc3ccccc32)c2ccccc2)c([N+](=O)[O-])c1 (centres undefined)
  -1.2, 4.9, -1%, -7, 15, 7, -4.1
8	CCC(Sc1nc2ccsc2c(=O)n1-c1ccc(Cl)c(C)c1)C(=O)NCc1ccco1 (centres undefined)
  2.3, -0.5, -6%, ., 1, -6, .
9	O=C(CCC(=O)OCC(F)(F)C(F)F)Nc1ccccc1F
  -3.4, 3.6, 4%, -2, 0, 3, 0.1
10	O=C(c1ccccc1)N1CCN(C(=S)NCc2ccc3c(c2)OCO3)CC1
  2.2, 1.4, -7%, -10, -1, -10, 0.3
11	O=S(=O)(NCc1ccccc1)c1ccc(S(=O)(=O)N2CCCCC2)cc1
  -0.8, 2.6, 4%, 1, -3, -2, -0.1
12	CCN(C(=O)COC(=O)C1CCN(S(=O)(=O)c2ccc(C)c(C)c2)CC1)C1CCS(=O)(=O)C1 (centres undefined)
  1.3, ?, 7%, -11, 3, 0, -0.4
13	CCOC(=O)CCCCC(=O)c1[nH]c(=O)[nH]c1CSc1nnc2c3ccccc3n(C(C)C)c2n1
  -2.6, -0.9, -18%, 28, 23, 1, -18
14	CN(Cc1nc2ccccc2n1C)c1ccccc1
  1.0, -0.2, 4%, 99*, -8, -9, -1.5
15	CC1N(C(=O)N2CCOCC2)CCN1S(=O)(=O)c1cccc(C(F)(F)F)c1 (centres undefined)
  1.5, -1.0, ., -12, 2, 0, -1.4
16	Cc1ccc(/C=N/n2cnnc2)s1
  -0.6, 8.1, 1%, ., 3, -25, 5.4
17	Cc1ccc(S(=O)(=O)N2CC(=O)Nc3ccccc32)cc1C
  1.9, -0.5, -1%, 0, 5, 12, 2.2
18	CCCCNC(=O)CCn1c(=O)c2ccccc2n(Cc2ccccc2C)c1=O
  2.5, -2.5, -9%, 1, -3, 38, -0.3
19	COc1ccc(C(=O)Nc2ccc(CN3CCS(=O)(=O)CC3)cc2)cc1
  3.4, -5.6, 1%, -1, 10, -3, 0.1
20	Cc1c(CC=C(Cl)Cl)c(=O)[nH]c2c(C)cccc12
  1.9, -4.0, ., -8, -3, -8, -5.2
21	CCN(Cc1ccccc1)C(=O)CC(=O)N(CC)Cc1ccccc1
  1.3, 0.9, ., -5, -7, 3, 4.4
22	O=C(COC(=O)C1CC2CCCC(C1)C2=O)Nc1nc(-c2ccc(F)c(F)c2)cs1 (centres undefined)
  0.3, 6.4, -1%, ., -2, -3, -2.0
23	Cc1cc2cc(CCNC(=O)C(C)C)c(=O)[nH]c2cc1C
  3.3, -0.9, ., -5, 3, 7, 1.9
24	O=C(CSc1nnc(Cc2ccccc2)n1Cc1ccco1)NC1CCCC1
  -4.8, -2.7, 7%, -14, 2, -14, 3.4
25	CCn1nnc(NC(=O)c2ccccc2Br)n1
  2.1, -1.0, -3%, -3, 6, 1, -1.5
26	CN(C)C(=O)C1C2NC(=S)N(c3ccccc3)C1(C)Oc1ccccc12 (centres undefined)
  0.8, -2.1, ., -5, 7, -2, -0.9
27	Cc1sc2c(c1C)C(O)=C(C(=O)Nc1ccccc1)S(=O)(=O)N2C
  -0.4, -3.6, 14%, ., 13, -18, 0.7
28	CCOc1ccc(NC(=O)CCS(=O)(=O)c2ccc(Br)cc2)cc1
  -15, -1.1, 14µM*, -7, -10, 19, -1.3
29	COCCNC(=O)c1ccc(N(C)S(=O)(=O)c2ccc(OC)c(OC)c2)cc1
  0.9, -1.6, 0%, ., 5, -3, -1.5
30	COc1ccc2nc3oc(C(=O)N4CC(C)CC(C)C4)cc3cc2c1 (centres undefined)
  -0.4, 4.7, ., 2, 2, 2, 7.7
31	CCOc1ccc(C(=O)Nc2ccc(N3CCN(C)CC3)cc2)cc1[N+](=O)[O-]
  -0.9, 9.0, 0%, -4, -15, -14, 0.3
32	COc1cccc(-c2nc(=S)c3c(n2CCCO)CCCC3)c1
  0.4, ?, -2%, -1, 6, 7, 1.0
33	S=C(Nc1ccc2c(c1)OCCO2)Nc1ccccc1Cl
  -1.4, ., ., -15, 2, -2, 2.1
34	CCOc1ccc(S(=O)(=O)N2CCCCC2)cc1NC(=O)c1cccnc1OCC
  -0.6, ., ., -7, 18, ., 0.6
35	Cc1ccc(CN2CC(=O)N3[C@H]4c5ccccc5OC[C@@H]4[C@H](c4ccccc4)[C@]3(C)C2=O)cc1
  2.7, ., ., -3, 12, ., 0.6
36	COc1ccccc1C(O)(C(=O)NNc1ccccc1C)c1ccccc1OC
  3.8, 1.6, ., 6, 8, -6, -2.3
37	Cc1ccccc1CNC(=O)CC1C(=O)NCCN1Cc1c(F)cccc1Cl (centres undefined)
  1.9, 0.6, 16%, -2, 1, -21, -5.0
38	CS(=O)(=O)N(Cc1ccccc1Cl)c1ccc(C(=O)N2CCCC2)cc1
  2.4, -2.4, -1%, -1, -2, 8, -3.1
39	O=C(CCCn1c(=O)[nH]c2ccsc2c1=O)N1CCN(c2ccccn2)CC1
  2.6, -4.6, -7%, 0, 1, 1, -1.6
40	CC1(c2cccc(Br)c2)NC(=O)N(CC(=O)c2ccc3c(c2)OCCO3)C1=O (centres undefined)
  5.2, ., ., -1, -8, ., -4.4
41	Cc1ccc(S(=O)(=O)N2CCN(C(=O)CCC(=O)NC3CCCc4ccccc43)CC2)cc1 (centres undefined)
  -0.3, -1.6, -4%, -50, 2, ?, -3.1
42	Cc1cccc(NC(=S)NCc2ccccn2)c1
  3.0, 0.6, ?, 5, 7, 0, 0.4
43	C=CCn1c(SCC(=O)c2[nH]c(C)c(C(=O)OCC)c2C)nc2scc(-c3ccccc3)c2c1=O
  10, 5.6, 4%, -14, 12, -3, 2.6
44	C=CCn1c(CSc2nc3ccccc3s2)nnc1SCC(=O)NCc1cccnc1
  -4.4, 0.8, 30%, 5, -4, 2, 3.4
45	Cc1cccc(C(=O)NCC(=O)NNC(=O)c2ccccc2O)c1
  -3.4, 5.8, 1%, -5, -3, ., 1.1
46	CCc1ccc(CNC(=O)CCS(=O)(=O)Cc2ccc(C)cc2)cc1
  -2.2, ?, 1%, 1, -3, 0, -1.9
47	Cc1cc(C(=O)N(C2CCCCC2)C2CCCCC2)no1
  -4.9, -2.4, 6%, -1, 8, -10, 1.0
48	Cc1ccc(C(C(=O)NC(C)(C)C)N(Cc2ccco2)C(=O)CCC(=O)Nc2ccccn2)cc1 (centres undefined)
  0.1, 2.3, ., ., 12, 5, 1.1
49	C/C(Cn1nnc([N+](=O)[O-])n1)=N\NC(=O)c1ccc(Cl)c(Cl)c1
  -0.1, 0.9, -3%, -23, 12, -40, -3.5
50	COc1cccc(-c2nc(CS(=O)(=O)CC(=O)Nc3ccc(C(C)=O)cc3)c(C)o2)c1
  3.3, -0.1, -39%, 2, -1, 19, -2.4
51	COc1ccc(S(=O)(=O)N2CCCc3ccccc32)cc1[N+](=O)[O-]
  0.3, 7.9, -5%, -1, -7, 14, -2.5
52	CCN(CC)S(=O)(=O)c1ccc(/C=C/C(=O)OCC#N)cc1
  -5.8, -0.6, 4%, 19, 4, 4, 0.4
53	O=C(NC1CCCCCC1)c1cccnc1Sc1ccccc1
  -0.2, 3.1, ., -13, -10, 0, 1.2
54	Cc1ccc(S(=O)(=O)N2CCOCC2)c(C)c1NS(C)(=O)=O
  -0.6, 3.0, 6%, -2, 13, 9, 4.5
55	S=c1[nH]nc(-c2ccco2)n1Cc1ccccc1
  3.5, ., -3%, 92*, -7, ., 1.5
56	C=CCn1c(C)csc1=Nc1ccccc1C
  -2.6, 4.0, ., 99*, 0, -8, -1.3
57	CC(=O)c1cccc(CN2CCN(Cc3ccccc3)C(CCO)C2)c1 (centres undefined)
  -3.4, 0.0, -8%, ., 0, -8, .
58	COc1ccc(CNC(=O)C2CC(O)CN2C(=O)Nc2ccccc2)cc1 (centres undefined)
  -0.4, 2.7, 5%, ., 13, -4, .
59	Cc1cc(-c2nnc(SCC(=O)NC3CC3)n2C(C)C)cs1
  -3.6, -1.7, 4%, -3, -4, -4, 2.2
60	Cc1c(-c2cccc(Cl)c2)nc2ccccc2c1C(=O)OCC(=O)Nc1ccc2c(c1)OCO2
  -0.6, -4.1, -7%, 2, -6, 12, -0.3

Later entries
Every second line gives: HNF4A DNA FP, RanGTP-Impb inh, Vif TR-FRET, ALR inh, Beta2AR agonist, Calb FLC, LANA-H2B inh
61	CCC(=O)N1CCc2cc(S(=O)(=O)CCC(=O)Nc3cccc(C)n3)ccc21
  1.5, 2.3, 5%, -17, 0, -26, 0.0
62	CCCc1sc(C(=O)Nc2nnc(C3CC3)s2)cc1CC
  -0.7, ., -9%, ., -12, ., .
63	Cc1ccccc1NC(=S)N(CCCN1CCOCC1)Cc1cccnc1
  -1.5, -2.1, -4%, ., -2, -1, 3.2
64	COc1cccc(N=Cc2ccc(O)cc2O)c1
  20, -5.8, 11%, -2, 7, -11, -0.3
65	Cc1cc(O)cc(C)c1NS(=O)(=O)c1ccc2ccccc2c1
  0.2, 1.2, -6%, 79*, 7, -11, -3.0
66	CCCCOc1ccc([N+](=O)[O-])cc1C(=O)O
  -1.2, 4.8, ., -12, 6, -2, 0.4
67	Cc1ccc(C2CC(c3cccs3)=NN2S(=O)(=O)c2ccc(C)cc2)cc1 (centres undefined)
  24, 0.1, 23%, -20, -1, 1, 1.6
68	CCC1CCCCN1CC(=O)Nc1ccc2c(c1)OCCO2 (centres undefined)
  5.4, ., ., -32, 0, ., 0.4
69	S=C1SCN(Cc2cccnc2)CN1Cc1cccnc1
  -3.9, 0.4, -5%, 9, 3, -6, -7.3
70	COc1ccc(CNC(=O)COc2ccc(C(=O)c3ccc(F)cc3)cc2)cc1
  -1.7, 1.6, -2%, -10, 1, 0, -2.2
71	Cc1csc(/N=C/c2ccc([N+](=O)[O-])cc2)n1
  -1.8, ., 15%, 85*, -1, ., 2.3
